SARS PLpro yeast: SARS-CoV PLP inhibition in yeast; S. cerevisiae expressing SARS-CoV PLpro, growth rescue; control for the full effect not named in the record; Potency, µM (titrated, usually from 32.9 µM), for inactives: at the highest dose activity, positive = growth rescue; 330,000 tested, 0.19% active; AID 485353; active means well fitted rising curve with a large enough effect; inconclusive means small, poorly fitted or top-dose-only effect; inactive means no such curve, though single readings can be large or run the other way; note: 0% is about no effect; nearly all actives have a fitted effect of over 55% in size; growth read by luminescence after 48 h
Cruzain inh Det: inhibitors of Trypanosoma cruzi cruzain with detergent; P25779; purified cruzain, Z-FR-AMC fluorescence, 0.01% Triton; Potency, µM, for the others: max response, negative = inhibition, hits mostly inhibitors; 200,000 tested, 0.43% active;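 note: plate controls were neutral wells for no effect and buffer without enzyme for full effect; nearly all actives have a fitted effect of over 40% in size; top concentration of the series not given in the record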
Target sequence (P25779 123-467 limits assumed): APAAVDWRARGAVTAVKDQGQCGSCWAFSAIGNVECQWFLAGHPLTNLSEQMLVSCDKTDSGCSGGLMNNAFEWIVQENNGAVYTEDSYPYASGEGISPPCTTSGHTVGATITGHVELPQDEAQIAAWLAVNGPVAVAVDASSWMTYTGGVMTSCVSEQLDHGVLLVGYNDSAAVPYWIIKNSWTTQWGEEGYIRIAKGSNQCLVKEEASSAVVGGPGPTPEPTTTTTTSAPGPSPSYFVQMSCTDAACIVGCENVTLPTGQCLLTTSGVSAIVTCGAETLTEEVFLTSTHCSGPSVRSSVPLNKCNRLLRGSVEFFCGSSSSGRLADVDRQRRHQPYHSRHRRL
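Sodium acetate buffer (100 mM, pH 5.5) containing 5 mM DTT and 0.01% Triton X-100 hosted 1.5 nM cruzain and test compound for 15 min at room temperature. Cleavage of 2 uM Z-FR-AMC was then tracked by fluorescence.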
NS1 function inh: influenza NS1 inhibition; S. cerevisiae slowed by influenza A NS1, growth recovery by OD600; Potency, µM (top dose mostly 46.1 µM), for inactives: at the highest dose activity, positive = more growth; 270,000 tested, 0.4% active; active means well fitted rising curve with a large enough effect; inconclusive means small, poorly fitted or top-dose-only effect; inactive means no such curve, though single readings can be large or run the other way; note: nearly all actives have a fitted effect of over 50% in size
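Compounds were scored for reversing the slow growth caused by influenza A NS1 in S. cerevisiae, measured by optical density at 600 nm. Assay medium contained 2% galactose at pH 6.0; NS1-free yeast of the same strain were the positive control.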
Marburg entry inh: blocks Marburg virus binding to or entry into cells | Marburg virus pseudotyped entry inhibition, cell reporter; control for the full effect not named in the record; about a third of the inactives were read at about 46 µM | Potency, µM (top dose mostly 37.8 µM), for the others: at the top dose activity change, negative = inhibition, usual class: inhibitors | 300,000 tested, 1.8% active; active = well fitted inhibition curve with a large enough effect; inconclusive = small, poorly fitted or top-dose-only effect, or effect the other way; inactive = flat fitted curve, though single readings scatter; tested in HEK293 cells; about a fifth of its hits are not listed in these tables; note: % is set by controls: 0 for no effect and ±100 for the full control effect; luciferase read-out
2A StopGo: lowers the luciferase signal of an FMDV 2A StopGo reporter | human cells with a luciferase reporter of 2A StopGo recoding; control for the full effect not named in the record | Potency, µM (series often up to 57.9 µM), without a hit: at the highest dose signal change, negative = less light | 410,000 tested, 1.2% active | AID 1159524; active = well fitted falling curve with a large enough effect; inconclusive = small, poorly fitted or top-dose-only effect; inactive = no such curve, though single readings can be large or run the other way; tested in HEK293T cells; note: % is set by controls: 0 for no effect and ±100 for the full control effect; nearly all actives have a fitted effect of over 45% in size; luciferase light after 4 h
Lassa entry inh: Lassa virus entry inhibition; Potency, µM (titrated, usually from 37.9 µM), inactives show at the highest dose activity change, negative = inhibition, most hits filed as inhibitors; Lassa virus pseudotype entry inhibition, cell reporter; control for the full effect not named in the record; 300,000 tested, 1.2% active; active means well fitted inhibition curve with a large enough effect; inconclusive means small, poorly fitted or top-dose-only effect, or effect the other way; inactive means flat fitted curve, though single readings scatter; tested in HEK293 cells; note: % is set by controls: 0 for no effect and ±100 for the full control effect; nearly all actives have a fitted effect of over 50% in size; luciferase read-out
Cruzain noTriton: inhibitors of Trypanosoma cruzi cruzain without detergent. 200,000 tested, 2.3% active. purified cruzain, Z-FR-AMC fluorescence, no detergent. Potency, µM, for the others: max response, negative = inhibition, hits mostly inhibitors. AID 1476. P25779;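 note: plate controls were enzyme without inhibitor for no effect and buffer without enzyme for full effect; nearly all actives have a fitted effect of over 40% in size; top concentration of the series not given in the record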
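Purified cruzain at 1.5 nM, pre-incubated 15 min with compound at room temperature in 100 mM sodium acetate pH 5.5, 5 mM DTT, 0.00005% Triton X-100. Reaction started with 2 uM Z-FR-AMC; AMC fluorescence increase over 60 s gives rate.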
RE007 growth inh: less growth of the S. pombe RE007 Vpr strain; S. pombe RE007 Vpr strain, BacTiter-Glo ATP luminescence, 24 h; control for the full effect not named in the record; Potency, µM (top dose mostly 92.2 µM), without a hit: at the highest dose activity change, negative = less growth; 360,000 tested, 0.21% active; active = well fitted falling curve with a large enough effect; inconclusive = small, poorly fitted or top-dose-only effect; inactive = no such curve, though single readings can be large or run the other way;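 note: % is set by controls: 0 for no effect and ±100 for the full control effect; nearly all actives have a fitted effect of over 50% in size; the assay follows cell death caused by Vpr and the record does not say whether a fall means rescue or toxicity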
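Fission yeast RE007 carrying one integrated HIV-1 vpr copy, seeded at OD 0.01 in PMG+AL medium with 23 nL pinned compound. Grown 24 h at 30 degrees; viability read by BacTiter-Glo luminescence after 5 min.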
Active calls of the source: *; ? = inconclusive; . = not tested or not shown; [ ] = another dose, or the depositor's remark. Unless noted, calls come from the whole dose curve; as a rule, active = well fitted curve in the direction sought with a large enough effect; inconclusive = small, poorly fitted or top-dose-only effect, or another doubt; inactive = no such curve, though single readings can be large; an effect the other way counts as inactive or inconclusive. Potency is the fitted concentration of half-maximal effect.

A first look, five compounds:
SMILES | SARS PLpro yeast | Cruzain inh Det | NS1 function inh | Marburg entry inh | 2A StopGo | Lassa entry inh | Cruzain noTriton | RE007 growth inh
CN(C)S(=O)(=O)c1cccc(NC(=O)COC(=O)c2cc(-c3cccc(Br)c3)nc3ccccc23)c1 | -8% | -1.2% | 14% | ? | 1% | 21% | 10µM* | -8%
O=C(CSc1nc2c(cnn2-c2ccc(F)cc2)c(=O)[nH]1)N1CCOCC1 | -3% | 2.6% | -9% | 8% | 10% | 19% | 6% | 13%
Cc1cnc(C(=O)NNC(=O)c2ccc(Br)cc2)cn1 | 1% | . | . | ? | -6% | ? | . | ?
Cc1ccc(SCC(=O)Nc2ccccc2C(=O)O)cc1 | -1% | -1.4% | -3% | ? | -4% | ? | -3% | 0%
Cc1sc2ncnc(SCC(=O)N3CCCC(C(F)(F)F)C3)c2c1C (configuration not stated) | 3% | . | 11% | . | 0% | . | . | 4%

The whole of this part, repeating the preview:
SMILES | SARS PLpro yeast | Cruzain inh Det | NS1 function inh | Marburg entry inh | 2A StopGo | Lassa entry inh | Cruzain noTriton | RE007 growth inh
CN(C)S(=O)(=O)c1cccc(NC(=O)COC(=O)c2cc(-c3cccc(Br)c3)nc3ccccc23)c1 | -8% | -1.2% | 14% | ? | 1% | 21% | 10µM* | -8%
O=C(CSc1nc2c(cnn2-c2ccc(F)cc2)c(=O)[nH]1)N1CCOCC1 | -3% | 2.6% | -9% | 8% | 10% | 19% | 6% | 13%
Cc1cnc(C(=O)NNC(=O)c2ccc(Br)cc2)cn1 | 1% | . | . | ? | -6% | ? | . | ?
Cc1ccc(SCC(=O)Nc2ccccc2C(=O)O)cc1 | -1% | -1.4% | -3% | ? | -4% | ? | -3% | 0%
Cc1sc2ncnc(SCC(=O)N3CCCC(C(F)(F)F)C3)c2c1C (configuration not stated) | 3% | . | 11% | . | 0% | . | . | 4%
O=C(CCn1c(=O)sc2ccccc21)NCc1ccc2c(c1)OCO2 | 9% | -0.1% | -7% | 10% | 3% | 25% | 0% | -4%
CCOC(=O)c1oc2ccc(Br)cc2c1NC(=O)CN1CCN(C)CC1 | -3% | 2.2% | -5% | ? | -20% | -9% | 10% | 2%
CC(=O)N1N=C(C)CC1c1ccc(O)cc1 (configuration not stated) | -3% | -1.3% | 7% | 13% | -7% | -4% | 6% | -16%
O=C(O)CCn1cc(C=C2C(=O)NC(=O)NC2=O)c(-c2cc3ccccc3oc2=O)n1 | 0% | . | 4% | -7%[46.1 µM] | -2% | -20% | . | 20%
COc1ccc2oc(-c3ccccc3)c(C(=O)O)c2c1 | -4% | . | -49% | . | 18% | . | . | -13%
CN1CCN(Cc2cn(C)nc2-c2ccccc2F)CC1c1ccccc1 (configuration not stated) | 0% | . | -4% | -19%[46.1 µM] | 2% | ? | . | 0%
COc1cc(/C=N/NC(N)=O)cc(Br)c1OCc1ccccc1C | -1% | 3.3% | 2% | 12% | 5% | -12% | 20µM* | 3%
Cc1ccc(C2(C)NC(=O)N(Cc3c(C)noc3C)C2=O)cc1 (configuration not stated) | 1% | -3.4% | ? | -8%[46.1 µM] | -14% | -3% | 7% | 1%
O=C1N=C(N2CCOCC2)SC1=C1CCCCC1 | 0% | -0.8% | 4% | ? | 47%[activator] | 16% | -3% | 0%
O=C(NNC(=S)Nc1ccccc1)c1cc(Br)ccc1Cl | 3% | . | -20% | -3% | 1% | 0% | . | 3%
CCOc1ccccc1C(=O)Nc1ccccc1-c1ccccc1 | -29% | -2.2% | -8% | ? | ? | -31% | 3% | -3%
CSc1nc2ccc(NC(=O)CSc3nnc(N)s3)cc2s1 | 3% | -5.2% | 8% | 3% | . | 2% | -25% | 10%
Oc1c(C=Nc2ccccc2Cl)[nH]c2ccccc12 | 0% | . | -7% | ? | ? | ? | . | -8%
CCCCC(CC)C(=O)NCc1ccccc1OC (configuration not stated) | 0% | 3.8% | -6% | ? | 8% | 0% | -8% | 15%
COc1ccccc1NC(=O)c1ccc(NC(=O)C2COc3ccccc3O2)cc1 (configuration not stated) | 14% | . | -6% | 1%[46.1 µM] | -7% | 24%[46.1 µM] | . | 1%
N#Cc1c(-c2ccccc2)nc(SCc2cccc(C(F)(F)F)c2)[nH]c1=O | 2% | . | 7% | . | -5% | . | . | -11%
Cc1cc(C)nc(NS(=O)(=O)c2ccc(NS(=O)(=O)c3ccc(C#N)cc3)cc2)n1 | -2% | . | 11% | 10% | 38%[activator] | -1% | . | 22%
COc1c(Cl)ccc(Cl)c1C(=O)OCC(=O)O | 3% | 10% | -4% | -14% | -21% | 13% | -6% | -8%
O=C(O)c1cccc(N/N=C/c2cccs2)c1 | 4% | -9.9% | 18% | 1.5µM* | 2.2µM* | 5.8µM* | -7% | 3%
Cc1ccc(C2=[N+]([O-])C3(CCCCC/C3=N\NC(N)=O)N(O)C2(C)C)o1 (configuration not stated) | 1% | -0.4% | 2% | -3% | -1% | 18% | 0% | -4%
CN(Cc1ccccc1Cl)C(=O)C1CCC(=O)N(CCc2cccc(F)c2)C1 (configuration not stated) | 25% | . | -1% | -2% | 4% | 18% | . | -4%
COc1cccc(C(=O)OCC(=O)NC(C)CCc2ccccc2)c1O (configuration not stated) | -1% | . | -2% | . | -7% | . | . | -8%
COP(=O)(OC)c1nc(-c2cccc3ccccc23)oc1NCc1ccccc1 | -29% | -8.3% | 16% | ? | -6% | -13% | ? | 18%
CCCc1cc(=O)[nH]c(SCC(=O)Nc2nc(-c3ccccc3)cs2)n1 | 0% | . | . | ? | -15% | -23% | . | 0%
COc1ccc(S(=O)(=O)Nc2cc(C)on2)cc1 | 0% | . | -3% | 13%[46.1 µM] | -11% | 17% | . | 17%
C=CCN1C(=O)NC(=O)/C(=C/c2cccn2C)C1=O | -2% | 3.2% | 13% | -21% | -23% | -28% | 0% | -16%
Cc1ncc(C[n+]2csc(CCOC(=O)CC3C4CC5CC(C4)CC3C5)c2C)c(N)n1 (configuration not stated) | -6% | 4.1% | -4% | 3% | -10% | -11% | 9% | .
Cc1ccc(OCC(=O)N2CCN(C(=O)Cc3ccccc3)CC2)cc1 | 5% | -0.9% | -3% | -3% | -6% | 7% | 14% | -16%
Cc1cccc(OCCc2c(C)[nH]c(=S)[nH]c2=O)c1 | -1% | . | . | ? | -4% | ? | . | -14%
Cc1ccc2c(c1)N(CC(=O)Nc1ncccc1C)C(=O)C(C(C)C)O2 (configuration not stated) | 3% | . | 17% | . | -2% | . | . | 2%
COc1cc(NC(=O)COC(=O)c2ccccc2F)cc(OC)c1 | 16% | -2.4% | -8% | ? | 4% | 6% | 4% | 39%
COc1ccc(-c2cc(C(=O)NCc3ccco3)c3ccccc3n2)cc1 | -5% | . | -14% | . | 19% | . | . | 8%
CC1CCN(S(=O)(=O)c2ccc(S(=O)(=O)NCc3cccnc3)cc2)CC1 | -1% | . | 10% | -26%[46.1 µM] | 16% | -1% | . | -3%
Cc1ccc(/C=C2\SC(=S)N(CCC(=O)NNC(=O)c3ccc(O)cc3)C2=O)cc1 | ? | . | -2% | . | 8% | . | . | 1%
COc1cc(OC)c(OC)cc1/C=C/c1nc2cc3ccccc3cc2c(=O)n1-c1ccc(F)c(Cl)c1 | . | 0.6% | . | . | ? | 2%[46.1 µM] | -5% | .

In a second layout: entries from further up.
Under each structure: SARS PLpro yeast | Cruzain inh Det | NS1 function inh | Marburg entry inh | 2A StopGo | Lassa entry inh | Cruzain noTriton | RE007 growth inh
> CCOc1ccccc1C(=O)Nc1ccccc1-c1ccccc1
 : -29% | -2.2% | -8% | ? | ? | -31% | 3% | -3%
> CSc1nc2ccc(NC(=O)CSc3nnc(N)s3)cc2s1
 : 3% | -5.2% | 8% | 3% | . | 2% | -25% | 10%

(continued)
SMILES | SARS PLpro yeast | Cruzain inh Det | NS1 function inh | Marburg entry inh | 2A StopGo | Lassa entry inh | Cruzain noTriton | RE007 growth inh
CC(=O)Nc1ccc(NC(=O)C(C)OC(=O)C2CCCC2)cc1 (configuration not stated) | 2% | . | . | ? | -3% | 19% | . | 4%
Cc1ccc(C)c(N2CCN(C(=O)c3ccc4c(Cl)c5c(nc4c3)CCCC5)CC2)c1 | . | -2.2% | . | -1%[46.1 µM] | -19% | 3%[46.1 µM] | 8% | .
Cc1cc(C)nc(SC2CC(=O)N(c3ccc(Br)cc3)C2=O)n1 (configuration not stated) | -4% | . | -5% | -12%[46.1 µM] | -7% | -3%[46.1 µM] | . | 5%
O=C(CN1C(=O)/C(=C\c2ccc(F)cc2)Oc2ccccc21)NCc1ccco1 | 6% | 25µM* | -6% | ? | -5% | 8% | 25µM* | -6%
Cc1ccccc1-n1c(SCC(=O)c2c(N)n(C)c(=O)n(C)c2=O)nc2sc3c(c2c1=O)CCCC3 | 16% | -3.0% | 20% | . | -4% | -12% | -8% | -10%
CN(CC(=O)Nc1sc2c(c1C#N)CCCCC2)Cc1nc2ccccc2c(=O)[nH]1 | -1% | . | . | -21%[46.1 µM] | ? | -1% | . | 19%
Cc1cccc(C2c3[nH]c4ccccc4c3CCN2Cc2ccc(C)s2)n1 (configuration not stated) | -2% | . | -8% | ? | 14% | 1% | . | 2%
CCN(CC(=O)Nc1cccc(OC)c1)C(=O)c1ccncc1 | 2% | . | 4% | 4%[46.1 µM] | 16% | 9% | . | -9%
CC(=O)NCc1ccc(S(=O)(=O)N2CCCN(C)CC2)cc1 | -1% | . | -4% | 5%[46.1 µM] | -7% | -14%[46.1 µM] | . | -14%
C/C(=C\c1cc(C(=O)O)c(C)o1)CO | 1% | -1.7% | 6% | 1% | 9% | -4% | -10% | -14%
Cc1ccc(NC(=O)C2CCN(C(=O)NC3CCCCC3)CC2)cc1 | 5% | -0.4% | 0% | 19%[46.1 µM] | -19% | -6% | -9% | -3%
CCCCNC(=O)Cc1c(O)c2ccccc2[nH]c1=O | 0% | -0.6% | 0% | 2% | 8% | -4% | -9% | 14%
CSc1nc(C)nc(C2CC2)c1C#N | -1% | . | 8% | -1% | -9% | 12% | . | -8%

Bioassay records (PubChem)
